DUX4 inh = blocks DUX4-driven transcriptional activation. 293T-iDUX4 ZSCAN4-Gaussia luciferase reporter, 24 h; stronger effect = lower value. activity change, negative = inhibition, % (test concentration not listed). 37,000 tested, 0.8% active. AID 1224904;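 active = -10% or lower and over 25 points stronger than a control reporter; inconclusive = -10% or lower with a smaller gap; inactive = above -10%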;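 also: 0% = median of neutral control wells and -100% = median of positive control wells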
DUX4 inh difference = further read-out of DUX4 inh, marked with its call; Gaussia minus Italica difference, %; measured here: selective DUX4 reporter inhibition;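 worked out from the two reporters; negative = selective loss of the DUX4 reporter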
DUX4 inh control = also measured in DUX4 inh; calls as there; activity change, negative = inhibition, %; measured here: Italica tet-on control reporter;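 0 = neutral control and -100 = positive control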
Active calls of the source: *; u = inconclusive; x = no result given; & = joins results of further samples. Not all compounds are listed; the hit share may differ from the screen's.

nr	DUX4 inh	DUX4 inh difference	DUX4 inh control	structure
1	0	-1	0.6	C[C@H]1CCCCO[C@@H](CN(C)CC2CCCCC2)[C@@H](C)CN([C@@H](C)CO)C(=O)c2cc(NS(C)(=O)=O)ccc2O1
2	0	-7	6.5	C[C@@H]1CN([C@@H](C)CO)C(=O)CCCn2cc(nn2)CO[C@H]1CN(C)C(=O)Nc1cccc2ccccc12
3	-10	-6	-3.4	CC[C@H]1C/C=C\C[C@@H](c2ccc(OC)cc2OC)NC(=O)[C@@H](C)CC(=O)N1
4	u	x	x	COc1cccc(S(=O)(=O)N2CCCCN3[C@H](C2)[C@@H](c2ccc(C#CCC(C)C)cc2)[C@@H]3CO)c1
5	-1	-3	1.9	CC=Cc1ccc2n(c1=O)C[C@@H]1[C@@H](CO)[C@H](C(=O)N(C)C)N(C(=O)CC)[C@H]21 (mixture of isomers)
6	-2	-7	5.4	CCCC(=O)Nc1ccc2c(c1)OC[C@H](C)N(Cc1nccs1)C[C@H](C)[C@H](OC)CN(C)C2=O
7	-2	-5	2.8	O=C(NCC[C@@H]1CC[C@@H](NS(=O)(=O)c2ccc(Cl)cc2)[C@H](CO)O1)Nc1ccc(F)cc1
8	8	3	5.5	Cn1cnc(S(=O)(=O)N2CCCCN3[C@H](C2)[C@H](c2ccc(-c4ccccc4F)cc2)[C@@H]3CO)c1
9	1	1	0.8	O=C(C[C@@H]1CC[C@@H](NC(=O)Nc2ccccc2F)[C@@H](CO)O1)NCc1ccc(Cl)cc1
10	8	-1	9.0	CCC(=O)N1CC[C@H]2[C@H](CO)Nc3ccc(-c4ccc(F)cc4)cc3[C@H]21
11	2	1	1.0	C[C@@H]1CCCCO[C@@H](CN(C)C(=O)C2CCCCC2)[C@H](C)CN([C@H](C)CO)C(=O)c2cc(NS(=O)(=O)c3ccccc3)ccc2O1
12	11	-8	19	O=C(C[C@H]1CC[C@H]2[C@@H](COC[C@H](O)CN2C(=O)Nc2ccc(Cl)cc2)O1)NCCc1ccncc1
13	-3	-1	-2.9	CC(C)C#Cc1cnc2c(c1)C(=O)N([C@H](C)CO)C[C@H](C)[C@H](CN(C)C(=O)Nc1ccccc1F)O2
14	u	x	x	O=C(C1CCCCC1)N1CC2(C1)[C@@H](c1ccccc1)[C@@H](CO)N2CC1CCCC1
15	4	4	-0.8	CC=Cc1ccc2n(c1=O)C[C@H]1[C@H](CO)[C@@H](C(=O)N(C)C)[C@@H]2N1S(=O)(=O)c1ccccc1C (mixture of isomers)

Pulled one by one from the entries so far, 4 records:
nr	DUX4 inh	DUX4 inh difference	DUX4 inh control	structure
7	-2	-5	2.8	O=C(NCC[C@@H]1CC[C@@H](NS(=O)(=O)c2ccc(Cl)cc2)[C@H](CO)O1)Nc1ccc(F)cc1
12	11	-8	19	O=C(C[C@H]1CC[C@H]2[C@@H](COC[C@H](O)CN2C(=O)Nc2ccc(Cl)cc2)O1)NCCc1ccncc1
6	-2	-7	5.4	CCCC(=O)Nc1ccc2c(c1)OC[C@H](C)N(Cc1nccs1)C[C@H](C)[C@H](OC)CN(C)C2=O
13	-3	-1	-2.9	CC(C)C#Cc1cnc2c(c1)C(=O)N([C@H](C)CO)C[C@H](C)[C@H](CN(C)C(=O)Nc1ccccc1F)O2

Later entries.
nr	DUX4 inh	DUX4 inh difference	DUX4 inh control	structure
16	2	4	-1.3	Cc1noc(C)c1S(=O)(=O)Nc1ccc2c(c1)C(=O)N([C@H](C)CO)C[C@@H](C)[C@@H](CN(C)S(=O)(=O)c1ccc(F)cc1)OCCCC[C@H](C)O2
17	10	10	-0.1	CS(=O)(=O)N1[C@H](CO)[C@@H](c2ccccc2)C12CN(C(=O)c1ccccc1F)C2
18	u	x	x	CN(C)C(=O)c1cccc(-c2ccc3c(c2)[C@@H]2[C@@H](CCN2C(=O)c2cnccn2)[C@@H](CO)N3)c1
19	1	3	-2.4	C[C@H]1CN([C@@H](C)CO)S(=O)(=O)c2ccc(C3=CCCCC3)cc2O[C@H]1CN(C)S(=O)(=O)c1cn(C)cn1
20	0	1	-0.1	CCC(=O)N1CC2(C1)[C@@H](c1ccccc1)[C@@H](CO)N2C(=O)c1cccnc1
21	19	14	4.7	COc1ccc2c3c([nH]c2c1)[C@@H](CO)N(C(=O)CN(C)C)CC31CN(Cc2ccncc2)C1
22	3	0	2.9	C[C@@H]1CN([C@H](C)CO)C(=O)c2cc(NC(=O)Cc3ccccc3)ccc2O[C@@H](C)CCCCO[C@H]1CN(C)C(=O)CCC(F)(F)F
23	2	2	0.1	COCC(=O)Nc1ccc2c(c1)[C@H]1C[C@H](CC(=O)NCc3cccnc3)O[C@H](CO)[C@H]1O2
24	2	-6	7.7	COc1cccc(-c2ccc([C@H]3[C@H](CO)N(C(=O)C4CC4)C34CN(C(C)=O)C4)cc2)c1
25	-2	-1	-0.5	O=C(CC1CC1)N1CC2(C1)[C@H](c1ccccc1)[C@@H](CO)N2C(=O)C1CCOCC1
26	-3	-9	5.6	O=C(C[C@H]1C[C@@H]2c3cc(NC(=O)CC4CC4)ccc3O[C@@H]2[C@H](CO)O1)NCc1ccc(Cl)cc1
27	0	0	0.0	COc1cccc(C(=O)Nc2ccc3c(c2)C(=O)N(C)[C@@H]2CC[C@@H](CC(=O)NCC(F)(F)F)O[C@H]2CO3)c1
28	2	0	2.1	O=C(C1CCCCC1)N1CC2(C1)[C@H](c1ccccc1)[C@H](CO)N2Cc1cncnc1
29	12	14	-2.9	CC(=O)N(C)C[C@@H]1OCc2ccccc2-c2ccccc2C(=O)N([C@H](C)CO)C[C@H]1C
30	12	5	6.4	COc1ccc2c3c([nH]c2c1)[C@@H](CO)N(C)CC31CN(S(=O)(=O)c2cn(C)cn2)C1

An excerpt of these results, with one line to a screen:
26	O=C(C[C@H]1C[C@@H]2c3cc(NC(=O)CC4CC4)ccc3O[C@@H]2[C@H](CO)O1)NCc1ccc(Cl)cc1
27	COc1cccc(C(=O)Nc2ccc3c(c2)C(=O)N(C)[C@@H]2CC[C@@H](CC(=O)NCC(F)(F)F)O[C@H]2CO3)c1
28	O=C(C1CCCCC1)N1CC2(C1)[C@H](c1ccccc1)[C@H](CO)N2Cc1cncnc1
29	CC(=O)N(C)C[C@@H]1OCc2ccccc2-c2ccccc2C(=O)N([C@H](C)CO)C[C@H]1C

Assay by compound	26	27	28	29
DUX4 inh	-3	0	2	12
DUX4 inh difference	-9	0	0	14
DUX4 inh control	5.6	0.0	2.1	-2.9

(list continues)
nr	DUX4 inh	DUX4 inh difference	DUX4 inh control	structure
31	1	0	0.5	CCC(=O)N1[C@@H]2c3ccc(-c4cccc(F)c4)c(=O)n3C[C@@H]2[C@@H](CO)[C@@H]1C(=O)N1CCCCC1
32	9	3	6.0	O=C(C[C@@H]1C[C@@H]2c3cc(NC(=O)Nc4ccccc4F)ccc3O[C@@H]2[C@H](CO)O1)NCc1cc(F)ccc1F
33	-5	-2	-3.2	CN(C[C@@H]1N[C@H](CO)[C@@H]1c1ccc(-c2cccc(F)c2)cc1)S(C)(=O)=O
34	0	-9	9.0	O=C(C[C@H]1C[C@H]2c3cc(NC(=O)c4cccnc4)ccc3O[C@H]2[C@@H](CO)O1)NC1CCCCC1
35	4	0	3.9	O=C(C[C@H]1C[C@@H]2c3cc(NS(=O)(=O)c4ccc(F)cc4)ccc3O[C@@H]2[C@@H](CO)O1)NCc1ccccn1
36	1	2	-1.0	COCCNC(=O)C[C@@H]1CC[C@H]2[C@@H](COC[C@@H](O)CN2C(=O)c2cc(Cl)cc(Cl)c2)O1
37	15	10	4.9	COC(=O)[C@@H]1N[C@@H]2c3ccc(C4=CCCCC4)c(=O)n3C[C@@H]2[C@H]1CO
38	-2	1	-2.5	C[C@H](CO)N1C[C@H](C)[C@H](CN(C)S(=O)(=O)c2ccc(Cl)cc2)Oc2ccc(NS(=O)(=O)c3cccs3)cc2C1=O
39	0	1	-1.3	Cc1noc(C)c1C(=O)N(C)C[C@@H]1OCc2ccccc2-c2ccccc2C(=O)N([C@H](C)CO)C[C@H]1C
40	-1	0	-0.7	C[C@@H]1CN([C@H](C)CO)C(=O)c2cccc(NC(=O)c3ccncc3)c2O[C@H]1CN(C)Cc1ccc2c(c1)OCO2
41	10&9	3&3	7.5&6.2	COc1cccc(-c2ccc(C3[C@H]4CNC[C@@H]3N4CC3CCOCC3)cc2)c1 (some centres not stated)
42	-6	-10	4.4	COc1ccc(NC(=O)N(C)C[C@@H]2OCCCC[C@@H](C)Oc3ccc(NC(=O)CCCN(C)C)cc3C(=O)N([C@@H](C)CO)C[C@H]2C)cc1
43	4	1	2.3	COC(=O)C[C@H]1CC[C@H]2[C@@H](COc3ccc(NC(=O)Cc4cccs4)cc3C(=O)N2C)O1
44	3	-1	4.7	COCC(=O)N1[C@H](C#N)[C@H](c2ccccc2-c2cccc(C)c2)[C@@H]1CO
45	6	5	1.4	O=C(CC1CC1)N1CC(=O)N2[C@H](CO)[C@H](c3ccc(-c4cccnc4)cc3)[C@@H]2C1

Source: PubChem BioAssay
